Source: PubChem BioAssay (several laboratories)
FGF22 binding: binders of recombinant human FGF22 by thermal shift; Q9HCT0; SYPRO orange fluorescence; percent of sucrose octasulfate shift, DMSO zero; calls only at 9.99 µM; 340,000 tested, 1.5% active; AID 651658;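 active means melting point raised past a set limit in the mean and every replicate; inconclusive means no clear call; three in four hits are not shown here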
Target sequence (Q9HCT0 whole entry, looked up): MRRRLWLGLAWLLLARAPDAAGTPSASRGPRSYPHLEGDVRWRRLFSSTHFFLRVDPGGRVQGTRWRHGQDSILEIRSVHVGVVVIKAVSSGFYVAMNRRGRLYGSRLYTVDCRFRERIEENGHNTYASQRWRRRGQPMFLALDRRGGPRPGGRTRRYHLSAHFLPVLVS
AF4-AF9 inh: MLL-AF4/AF9 protein interaction inhibition | P42568 | AlphaScreen, biotin-AF4 peptide binding to FLAG-AF9 | inhibition, % at 10 µM | 350,000 tested, 0.47% active;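 active means every replicate reaching a set inhibition limit, whatever the replicate mean, cut at about 25% in these data; inconclusive means mean inhibition reaches that limit but some replicates miss it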;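 further: 0% = plate neutral control median and 100% = total signal loss; the record names both 10 and 1 µM as test concentration; the first replicate is given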
HNF4A DNA FP: change in binding of human HNF4 alpha to DNA; P41235; 360,000 tested, 0.3% active; activity change, % at 10 µM; AID 1224865; HNF4a-FITC DNA binding, fluorescence polarization, 1 h; in the data active means activity change above about 30%, passing the limit was not always enough;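 further: controls were the assay level and a saturating level of protein; the project sought stronger binding though the title names inhibitors; some compounds called inactive have numbers as strong as hits; positive values seem to mean higher polarization but the record does not say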
Target sequence (P41235 whole entry, looked up): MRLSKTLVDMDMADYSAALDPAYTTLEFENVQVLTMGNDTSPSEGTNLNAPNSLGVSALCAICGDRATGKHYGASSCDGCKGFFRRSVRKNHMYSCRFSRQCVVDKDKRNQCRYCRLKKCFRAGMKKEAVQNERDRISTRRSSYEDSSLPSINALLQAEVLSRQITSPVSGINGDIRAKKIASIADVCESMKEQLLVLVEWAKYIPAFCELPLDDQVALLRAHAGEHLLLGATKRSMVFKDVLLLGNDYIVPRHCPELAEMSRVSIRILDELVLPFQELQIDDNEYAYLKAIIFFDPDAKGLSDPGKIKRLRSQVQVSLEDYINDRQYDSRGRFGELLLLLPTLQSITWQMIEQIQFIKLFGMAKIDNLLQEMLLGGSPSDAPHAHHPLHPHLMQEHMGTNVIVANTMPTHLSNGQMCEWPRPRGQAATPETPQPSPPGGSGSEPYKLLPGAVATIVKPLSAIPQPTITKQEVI
Vif TR-FRET: HIV-1 Vif–A3G interaction blockers – biochemical, TR-FRET, GST-Vif 1-94, biotin-A3G peptide, dose response retest, primary screen (AID 1117319) | TR-FRET GST-Vif / biotin-A3G peptide binding; higher % means a stronger effect; test concentration not given here; strong numbers were not always called active | inhibition, %, or IC50 in µM where a hit was titrated | 260,000 tested, 0.57% active;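 active means above the screen mean plus three standard deviations and confirmed in dose response; inconclusive means results disagree or hit not tested in dose response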;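 further: Vif residues 1-94 fused to GST binding biotinylated APOBEC3G peptide 110-148; 0% = full assay without inhibitor and 100% = GST in place of GST-Vif; retest series ran down from 100 µM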
ALR inh: blocks human ALR sulfhydryl oxidase activity | P55789 | purified ALR, DTT oxidation, H2O2 HRP-luminol luminescence | inhibition, % (no concentration beside the values) | 290,000 tested, 3.8% active | AID 485317;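 active means mean and each replicate at 75% or more; inconclusive means only one of the two met; inactive means neither met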;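 further: stock transfer was 7.5 nL into about 7.5 µL; 0% = neutral wells and 100% = wells with inactivated enzyme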
Target sequence (P55789 whole entry, looked up): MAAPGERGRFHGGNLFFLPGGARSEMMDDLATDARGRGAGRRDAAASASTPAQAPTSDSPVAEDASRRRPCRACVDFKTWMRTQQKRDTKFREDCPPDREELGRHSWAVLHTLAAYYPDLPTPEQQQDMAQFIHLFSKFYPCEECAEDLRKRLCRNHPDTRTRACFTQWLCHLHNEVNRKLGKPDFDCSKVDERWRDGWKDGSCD
E coli growth: E. coli growth inhibition; Escherichia coli growth, OD600, 23 h; hits give low values; OD600 absorbance (concentration not given with the values); 330,000 tested, 0.21% active; AID 1053175;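 active means OD600 absorbance below the run mean of sample wells minus 3.6 SD, in any replicate, cut at about 0.56 in these data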;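 further: stock transfer was 300 nL into about 60 µL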
Ecoli rRNA inh: inhibits bacterial ribosomal RNA function over humanized ribosomes. E. coli WT GFP vs humanized-ribosome RFP mutants, fluorescence, 24 h; hits give low values; DMSO median 0, no signal -100. GFP signal change (wild-type ribosome), % (no concentration beside the values). 350,000 tested, 1.6% active. AID 720706;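 active means significant combined selectivity score with lowered wild-type GFP, culture density cut under 30%, mutant RFP and density less affected; inactive means any of these conditions unmet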; further: one replicate is shown; some compounds called inactive have numbers as strong as hits
Ecoli rRNA inh OD600: second read-out of Ecoli rRNA inh, no call of its own (marks repeat the call); OD600 change, %; measured here: OD600 growth;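 optical density of the mix in the first replicate; 0 = DMSO median and -100 = no signal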
Ecoli rRNA inh RFP: further read-out of Ecoli rRNA inh, marked with its call; RFP signal change, %; measured here: RFP humanized mutant strains;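 first replicate; 0 = DMSO median and -100 = no signal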
Numbers without * were called inactive; i = inactive; ? = inconclusive; . = no result given.

SMILES	FGF22 binding	AF4-AF9 inh	HNF4A DNA FP	Vif TR-FRET	ALR inh	E coli growth	Ecoli rRNA inh	Ecoli rRNA inh OD600	Ecoli rRNA inh RFP
CC(C)(C)OC(=O)N1Cc2ccccc2C[C@H]1C(=O)NC1CCCC1	i	-1.5	-0.2	-4%	-19	0.66	3	-3	-0.3
C[C@@H]1CN([C@@H](C)CO)C(=O)c2cc(NC(=O)CCCN(C)C)ccc2O[C@@H]1CN(C)C(=O)Nc1ccc2c(c1)OCO2	i	-0.2	.	.	.	.	0	-10	-1.9
CN(CCOc1ccccc1)C(=O)c1ccc(F)c(S(=O)(=O)N2CCOCC2)c1	i	3.6	1.3	4%	2	0.68	-2	-3	2.2
CCOC(=O)c1cc[n+](CC(=O)c2ccc(F)cc2)cc1	.	.	8.4	?	-35	0.73	.	.	.
CN(CC(=O)Nc1ccc(F)cc1)C(=O)C1CCN(C(=O)Nc2ccccc2)CC1	i	1.4	2.5	-2%	-3	0.69	11	22	1.8
Cc1cccc(C)c1NC(=S)N(Cc1cccnc1)Cc1ccccc1Cl	i	-4.5	2.6	25%	-3	0.71	-11	-8	-0.1
CC(C)NC(=O)c1onc(CSc2ccc(F)c(F)c2)c1C(=O)O	i	-3.1	-2.4	-2%	2	0.71	-4	2	-16
C/C=C/c1ccc(OCCCCNCc2ccco2)c(OC)c1	i	18	0.8	3%	10	0.7	1	-4	0.5
O=C(/C(=C(\[O-])c1ccccc1)[n+]1ccc2ccccc2c1)c1ccc(Cl)cc1	.	.	4.6	-6%	9	0.7	.	.	.
CN(C)CC(=O)Nc1ccc2c(c1)[C@H]1C[C@@H](CC(=O)N(C)C)O[C@@H](CO)[C@H]1O2	i	-2.3	.	.	.	.	1	-2	-2.5
COC(=O)C1(C)NC(c2ccc(Cl)cc2)C2C(=O)N(c3ccccc3)C(=O)C21 (stereo not drawn)	i	0.4	0.9	.	-12	0.67	11	6	-0.6
O=C(c1[nH]c(C(F)(F)F)nc1-c1ccccc1)N1CCN(c2ccncc2)CC1	i	1.7	-0.2	.	.	.	17	21	2.9
Cc1ccc(/C=N/Nc2nnc(Cl)c3ccccc23)cc1	i	16	2.8	1%	12	.	-11	-13	-2.3
O=C(c1cccnc1)N1CC2(C1)[C@H](c1ccccc1)[C@H](CO)N2C(=O)C1CCC1	i	-4.1	.	.	.	.	5	2	-0.7
C=CCOC(=O)C1=C(C)Nc2[nH]c(=O)[nH]c(=O)c2C1c1ccccc1 (stereo not drawn)	.	1.5	-3.0	.	12	0.63	-4	-7	1.7

Six compounds already listed, sorted by their value in Vif TR-FRET, largest number first.
SMILES | Vif TR-FRET
Cc1cccc(C)c1NC(=S)N(Cc1cccnc1)Cc1ccccc1Cl | 25%
CN(CCOc1ccccc1)C(=O)c1ccc(F)c(S(=O)(=O)N2CCOCC2)c1 | 4%
C/C=C/c1ccc(OCCCCNCc2ccco2)c(OC)c1 | 3%
Cc1ccc(/C=N/Nc2nnc(Cl)c3ccccc23)cc1 | 1%
CC(C)NC(=O)c1onc(CSc2ccc(F)c(F)c2)c1C(=O)O | -2%
CC(C)(C)OC(=O)N1Cc2ccccc2C[C@H]1C(=O)NC1CCCC1 | -4%

Remaining list, next part.
SMILES	FGF22 binding	AF4-AF9 inh	HNF4A DNA FP	Vif TR-FRET	ALR inh	E coli growth	Ecoli rRNA inh	Ecoli rRNA inh OD600	Ecoli rRNA inh RFP
O=C(Nc1cccc(-c2ccc3nncn3n2)c1)c1ccco1	i	-21	-5.1	?	.	0.64	6	3	4.9
CC(NC(=O)C(Cc1ccccc1)=NO)c1ccccc1 (stereo not drawn)	i	-0.3	-1.3	-1%	.	.	-5	-10	-1.1
O=C(COc1ccc([N+](=O)[O-])cc1)N(Cc1ccccc1)Cc1ccccc1	i	0.3	1.7	-3%	-29	0.68	-6	-4	-4.5
CCOc1ccc(C(NC(=O)CC)c2c(O)ccc3ccccc23)cc1 (stereo not drawn)	i	-3.6	2.1	.	-200	0.63	-26	-40	-2.8
O=C(NCCc1ccc(F)cc1)C(=O)Nc1cc2c3c(c1)CC(=O)N3CCC2	i	-1.2	1.9	.	-2	0.68	7	5	6.2
CCOC(=O)c1c(C)[nH]c(C)c1C(=O)CSc1nc2ccccc2c(=O)n1-c1ccc(C)cc1	.	.	1.6	.	-3	0.68	.	.	.
C[C@H](CO)N1C[C@H](C)[C@H](CN(C)C(=O)Nc2ccc(C(F)(F)F)cc2)Oc2ncc(/C=C/c3ccccc3)cc2C1=O	i	3.5	.	.	.	.	3	2	-1.5
CCN(CC)c1ccc(C2C(C(=O)OC(C)C)C(=O)CC(C)(O)C2C(=O)OC(C)C)cc1 (stereo not drawn)	.	.	0.9	27%	16	0.71	.	.	.
CCOc1cc(S(=O)(=O)N2CCC(C(N)=O)CC2)ccc1F	.	.	5.0	2%	.	0.64	.	.	.
COc1cccc(N2CCN(C(=O)CN(c3cc(C)cc(C)c3)S(=O)(=O)c3c(C)noc3C)CC2)c1	i	6.3	2.6	2%	-22	0.71	1	-27	-0.8
O=c1nc(Nc2cccc(Cl)c2)oc2cc(Cl)oc(=O)c12	i	2.9	5.0	7%	.	.	10	11	-1.0
O=C(Nc1ccc(Cl)c(Cl)c1)N[C@H]1CC[C@@H](CCn2cc(C3CC3)nn2)O[C@@H]1CO	i	0.5	.	.	.	.	-4	-4	2.6
COc1ccc(CN(C)C[C@@H]2Oc3ccc(NC(=O)Nc4ccccc4)cc3C(=O)N([C@@H](C)CO)C[C@H]2C)cc1	i	-6.1	.	.	.	.	4	2	2.0
COc1ccc(/C=C/C(=O)NCC2COc3ccccc3O2)cc1OC (stereo not drawn)	i	2.6	-1.6	.	-7	0.63	-20	-35	23
CCCCSc1nc(SCC(=O)NCc2ccco2)c2c3c(sc2n1)COC(C)(CC)C3 (stereo not drawn)	.	.	-5.9	-55%	42	0.7	.	.	.
OC(c1ccccc1)C(O)C(c1ccccc1)N1CCCCC1 (stereo not drawn)	i	-0.5	-4.6	-2%	.	0.69	2	-1	2.0
COC(=O)c1ccc(NC(=S)Nc2ccccc2)cc1	i	-5.8	-2.7	13%	1	0.67	-1	3	-0.9
C[C@H](CO)N1C[C@H](C)[C@H](CN(C)C(=O)Nc2ccc3c(c2)OCO3)OCCCC[C@H](C)Oc2ccc(NC(=O)CCCCCC(=O)Nc3ccccc3N)cc2C1=O	i	-1.1	.	.	.	.	-1	1	-1.9
CCCCN(C)CCNC(=O)c1ccc(Cn2c(=S)[nH]c3ccc(Br)cc3c2=O)cc1	i	13	5.6	-4%	-16	0.71	-53*	-33*	-13*
COc1cc(NS(=O)(=O)c2ccc(NC(=S)NC(=O)/C=C/c3ccc(F)cc3)cc2)ncn1	i	-1.9	-5.0	.	19	.	5	9	5.8
Cc1c(C(=O)N(C)CCCCN2CCOCC2)oc2c(F)cccc12	i	-5.7	-0.1	.	-6	0.71	-1	8	-2.6
NC(=O)[C@H]1CC2(CC(c3cccc(NC(=O)[C@H]4CCC(=O)N4)c3)=NO2)CN1C(=O)CC(c1ccccc1)c1ccccc1 (stereo partly drawn)	i	-2.3	.	.	-9	.	0	-2	6.8
O=C(O/N=C(\c1ccccc1)c1ccccn1)c1ccc(Cl)c(Cl)c1	.	.	-2.5	-3%	41	.	.	.	.
COc1ccc(S(=O)(=O)N2CCCCCC2)cc1C(=O)N(C)CC(=O)Nc1ccc(F)cc1	i	14	2.0	5%	-2	0.62	1	2	1.1
Cc1cc(Cl)c(O)c(-n2nc3ccccc3n2)c1	i	5.1	-2.5	-2%	-2	0.69	11	10	-2.9
CCCCC1CC(CSc2ncn[nH]2)OC1=O (stereo not drawn)	.	.	-6.0	-2%	-10	0.69	.	.	.
O=C(C=Cc1ccco1)c1ccco1	i	-2.2	-0.9	3%	.	0.69	23	18	7.2
COc1cccc(C2=CC(=O)C[C@H](c3ccc(OC)c(OC)c3)C2)c1	i	7.9	-1.7	.	-2	.	-22	-37	-8.2
COc1ccc(CNC(=O)CSc2nnc(-c3ccc(NC(C)=O)cc3)n2C)cc1	.	.	1.2	19%	-11	0.75	.	.	.
NC1(C#Cc2ccc3oc(=O)c(-n4cc(-c5ccsc5)nn4)cc3c2)CCCCC1	i	0.4	1.9	.	-12	.	8	-1	3.2
O=C(Cc1ccc(Br)cc1)N1CCN(c2ccccn2)CC1	.	.	1.7	-5%	-6	0.61	.	.	.
O=C(NCCc1ccccc1)[C@H]1[C@H](CO)[C@H]2Cn3c(cccc3=O)[C@@H]1N2C(=O)C1CC1	i	0.0	.	.	.	.	5	7	2.7
O=C(Nc1cc(F)ccc1F)N1CCCCN2[C@H](C1)[C@@H](c1ccc(-c3ccncc3)cc1)[C@@H]2CO	i	-0.9	.	.	.	.	-14	-29	3.7
COCc1ccc(C(=O)N2CCCC(Nc3ccc(C(C)C)cc3)C2)o1 (stereo not drawn)	i	3.0	3.5	.	93*	0.74	1	9	0.5
CN(C(=O)c1nn(C)c2c1CS(=O)(=O)c1ccccc1-2)c1cccc(Cl)c1	i	0.7	5.2	24%	0	0.69	1	-3	-4.9
Cc1ccc(S(=O)(=O)N(C)C[C@@H]2Oc3c(NC(=O)Nc4ccc(F)cc4)cccc3C(=O)N([C@@H](C)CO)C[C@H]2C)cc1	i	1.7	.	.	.	.	5	9	-2.2
CCOC(=O)C1CCN(C(=O)COC(=O)C2CCN(S(=O)(=O)c3ccc4c(c3)OCCO4)CC2)CC1	i	0.7	-0.8	7%	.	0.66	-5	-4	-1.8
CCOC(=O)N1CCN(c2cc(N)c([N+](=O)[O-])cc2F)CC1	i	5.6	4.2	7%	-2	0.65	-16	-10	-9.3
C[C@H]1CN([C@@H](C)CO)S(=O)(=O)c2ccc(-c3ccccc3)cc2O[C@@H]1CN(C)C	i	-0.7	.	.	.	.	2	-5	-1.3
C[C@H](CO)N1C[C@H](C)[C@H](CN(C)Cc2ccc(C(=O)O)cc2)Oc2c(NS(=O)(=O)c3ccc(F)cc3)cccc2C1=O	i	-1.2	.	.	.	.	0	6	1.2
Cc1ccc(S(=O)(=O)Nc2ccc3c(c2)C(=O)N([C@@H](C)CO)C[C@@H](C)[C@H](CN(C)C)O3)cc1	i	-7.3	.	.	.	.	0	1	3.5
CCOc1ccc(S(=O)(=O)/N=C(/Nc2ccc(C(C)=O)cc2)c2ccccc2)cc1	i	-1.0	1.3	-8%	-3	0.69	-2	-1	17
Cc1noc(C)c1NC(=O)Nc1cccc2c1O[C@@H](CN(C)C(=O)NC1CCCCC1)[C@H](C)CN([C@@H](C)CO)C2=O	i	-2.4	.	.	.	.	2	6	-2.8
CCN(CC)S(=O)(=O)c1cccc(-c2nnc(SCc3ncc(-c4ccccc4)o3)n2C)c1	.	.	1.5	0%	-12	0.71	.	.	.

Whole records, quoted from the list. Values in the order: FGF22 binding	AF4-AF9 inh	HNF4A DNA FP	Vif TR-FRET	ALR inh	E coli growth	Ecoli rRNA inh	Ecoli rRNA inh OD600	Ecoli rRNA inh RFP
Entry for `O=C(Cc1ccc(Br)cc1)N1CCN(c2ccccn2)CC1` : .	.	1.7	-5%	-6	0.61	.	.	.
Entry for `CCOc1ccc(S(=O)(=O)/N=C(/Nc2ccc(C(C)=O)cc2)c2ccccc2)cc1` : i	-1.0	1.3	-8%	-3	0.69	-2	-1	17

Not all compounds are listed; count on the stated rates, not on these rows.
